NPYLR7 ag = activates Aedes aegypti NPYLR7 receptor; HEK293T NPYLR7/Galpha15, GCaMP6s calcium fluorescence; activation, % at 10 µM; hit rate 0.15% among 270,000; in the data active = activation above about 40%;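 note: 0% = vehicle and 100% = reference agonist at the receptor; some compounds past the cut are filed as inactive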
NPYLR7 ag max-min = further read-out of NPYLR7 ag, marked with its call; activation, %; measured here: Max-Min RFU normalised activation; some inactives read as strong as hits;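 span of the calcium signal over five minutes; 0% = vehicle and 100% = native peptide agonist; compound fluorescence can raise it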
Active calls of the source: *. An excerpt. The share of hits here may be higher or lower than overall.

1. CSCCn1c(=NC(=O)c2ccc(Cl)s2)sc2cc(S(C)(=O)=O)ccc21
2. O=C(c1ncn[nH]1)N1CCN(Cc2cn[nH]c2-c2ccc(-c3ccccc3)cc2)CC1
3. C=CCN=C1CC(C)(C)CC(=O)C1=C(O)CCC(=O)OC
4. CC(CCN1CCOCC1)n1cnc(-c2ccccc2)c1-c1ccsc1 (stereo not given)
5. CC(C)c1cc(N(C)C)nc(SCc2cccc(C(=O)NCC3CC3)c2)n1
6. CCC(C)NC(=O)c1cc(NC(=O)Nc2ccccc2OC)ccc1N1CCc2ccccc2C1 (stereo not given)

compound no.,1,2,3,4,5,6
NPYLR7 ag,8.6,5.4,13.0,-1.8,-6.9,-2.8
NPYLR7 ag max-min,5.3,2.6,1.3,11.1,-5.4,-4.2

7. Cc1nc(SCc2cccc([N+](=O)[O-])c2)c2c(=O)n(C)c(=O)n(C)c2n1
8. Cn1cc(NC(=O)CN2CCc3onc(-c4cccc(F)c4)c3C2)cn1
9. CC(=O)Nc1ccc(CN2C(=O)C(CCc3ccccc3)ON=C2c2cnccn2)cc1 (stereo not given)
10. O=C(NC1CCCC1)c1nn(Cc2ccccc2)c(=O)c2ccccc12
11. O=C1NC(=O)N(c2ccc(Br)cc2)C(=O)/C1=C/c1ccco1
12. CCCCCCCCC(=O)NCc1cc(OC)c(O)cc1I

compound no.,7,8,9,10,11,12
NPYLR7 ag,9.2,6.7,7.4,2.3,6.9,-13.1
NPYLR7 ag max-min,11.4,3.8,3.5,-0.8,4.5,-15.9

13. NS(=O)(=O)c1ccc(OCCOc2cc(Cl)ccc2Cl)cc1
14. O=C(Cc1cc2c(cc1Cl)OCCO2)N1CCC2(CCCO2)CC1
15. CCn1nc(C)c(CNCc2csc(Br)c2)c1C
16. COc1ccc(CNC(=O)c2sc3nc4c(cc3c2N)CN(C)CC4)cc1
17. COc1ccc(C)c2sc(N(CCCN(C)C)C(=O)c3cccc(S(C)(=O)=O)c3)nc12
18. COc1ccc(OC)c(C2SCC(=O)N(CC(=O)NCc3cccnc3)c3c2c(C(C)(C)C)nn3-c2ccccc2Cl)c1 (stereo not given)

compound no.,13,14,15,16,17,18
NPYLR7 ag,10.4,7.5,0.7,10.7,0.2,-4.7
NPYLR7 ag max-min,6.2,5.1,0.7,2.9,-6.0,-1.0

19. CC(C)NC(=O)c1ccc2c(=O)n(Cc3ccccc3)c3nn(Cc4ccccc4)c(=O)n3c2c1
20. O=C(O)c1ccc(Cl)c(S(=O)(=O)Nc2cccc(N3CCOCC3)c2)c1
21. CC(C)Cc1ncc2c(n1)CN(C(=O)Cn1cncn1)C2
22. CCN1CCN(c2nc3c(c(=O)[nH]c(=O)n3C)n2Cc2ccc(F)cc2)CC1
23. COC(=O)C1N(c2ccccc2)N=C(c2ccccc2)C1(C)C (stereo not given)
24. C=CCn1c(SCc2ccc(C(=O)Nc3ccc(C(C)C)cc3)cc2)nnc1-c1ccco1

compound no.,19,20,21,22,23,24
NPYLR7 ag,3.3,1.4,7.7,-5.0,4.6,14.9
NPYLR7 ag max-min,0.8,0.2,4.3,-6.6,-0.6,30.4

25. O=c1oc2ccccc2cc1-c1nnc(-c2ccc([N+](=O)[O-])cc2)o1
26. CC(NC(=O)c1ccc(=O)[nH]c1)c1ccco1 (stereo not given)
27. O=C(NCc1ccco1)N1CC2OCCN(Cc3ccccc3)C2C1 (stereo not given)
28. Cc1nn(CCC(=O)N(C)Cc2ccc3ncccc3c2)c(C)c1C
29. CCOC(=NC1CCCCC1)NC(=O)c1ccc(F)cc1
30. NC(=O)[C@@H]1CCCN1Cc1cn[nH]c1-c1ccc(F)cc1

compound no.,25,26,27,28,29,30
NPYLR7 ag,-2.9,-1.7,-23.6,-6.8,-3.0,12.9
NPYLR7 ag max-min,-8.3,-4.3,-24.2,-9.5,5.9,9.5

31. O=C1CCCN1C1CCN(Cc2cnc(C3CCCCC3)nc2)CC1
32. CCOC(=O)C1=C(C)NC(=O)NC1c1ccc(C(=O)OC)cc1 (stereo not given)
33. O=C1NC2(CCN(S(=O)(=O)/C=C/c3ccccc3)CC2)Nc2ccc(Br)cc21
34. COc1ccccc1NC(=O)c1nnn(Cc2nc(-c3ccc(OC(C)C)cc3)oc2C)c1C
35. Cn1ncc2c(N3CCCCC3)nc(N3CCN(c4ccccc4)CC3)nc21
36. CCc1nc2ccc(C(=O)NCCc3ccccn3)cn2c1N(C)Cc1cccs1

compound no.,31,32,33,34,35,36
NPYLR7 ag,0.2,-6.3,1.3,8.1,0.5,6.4
NPYLR7 ag max-min,-3.5,-11.3,0.7,-2.6,-2.3,-4.3

37. COc1ccc(-c2cc(NC(=O)CCCOc3ccccc3)n(-c3ccc(C)cc3)n2)cc1
38. Cc1cccnc1CC(C)N(C)C(=O)c1ccc(-n2cnnn2)cc1 (stereo not given)
39. Cn1c(C2CCCN(S(C)(=O)=O)C2)nn(Cc2c(F)cccc2Cl)c1=O (stereo not given)
40. COCCOC(=O)C1=C(C)N(C)C(=S)NC1c1ccc(NC(=O)Nc2ccc(OC)cc2OC)cc1 (stereo not given)
41. CCSc1nc(CC(=O)N(C)Cc2nonc2C)cs1
42. O=C(NC1CCCC1)c1cc2c(s1)CSC2

compound no.,37,38,39,40,41,42
NPYLR7 ag,8.8,-2.1,-5.0,1.4,19.9,0.1
NPYLR7 ag max-min,15.3,-6.4,2.7,11.1,9.3,0.2

43. CC(C)n1c(C2CC(=O)N(c3ccc(Cl)cc3)C2)nc2ccccc21 (stereo not given)
44. NC(=O)c1nc(-c2cccc(O)c2)nc2c1[nH]c(=O)n2-c1ccc(F)cc1
45. Cc1ccc(C=NN2CCN(Cc3ccc(C)cc3C)CC2)cc1
46. Cn1cnnc1Sc1ccc(CN2CCc3[nH]c4ccc(F)cc4c3C2)o1
47. CCOc1cc(/C=C2/SC(=S)N(CC(=O)O)C2=O)ccc1OCc1ccc(Cl)c(Cl)c1
48. NCCc1nncn1-c1cccc2ccccc12

compound no.,43,44,45,46,47,48
NPYLR7 ag,4.2,3.3,0.3,32.7,-3.4,13.4
NPYLR7 ag max-min,3.9,1.3,-4.8,21.5,6.4,13.1

49. CC(=O)c1ccc(N2CCN(C(=O)c3ccccc3N(C)C(=O)C3CC3)CC2)cc1
50. COc1ccc(CN2CCN(Cc3ccc(C#CCCO)cc3)CC2CCO)c(F)c1 (stereo not given)
51. COC(=O)c1cc(CN2CCN(C(=O)c3cccc(OC)c3)CC2)cs1
52. Cc1c(C(=O)N2CCC(O)(CN(C)C)C2)sc2ncn(C)c(=O)c12 (stereo not given)
53. O=[N+]([O-])c1cccc(S(=O)(=O)NCCc2csc3nc(-c4cccs4)nn23)c1
54. O=C(O)CC1S/C(=N\N=C/c2ccc([N+](=O)[O-])cc2)N(c2ccc(O)cc2)C1=O (stereo not given)

compound no.,49,50,51,52,53,54
NPYLR7 ag,0.5,-6.2,2.1,18.8,-2.6,0.1
NPYLR7 ag max-min,-1.8,-6.2,-0.2,17.0,-2.4,-0.5

55. COC(=O)[C@@H](C)NC(=O)[C@H]1CN(S(=O)(=O)c2ccccc2)CCN1C(=O)C1CCNCC1
56. CCC(CC)C(=O)N(C)c1c(C)nc2c(OCCOc3ccccc3)cccn12
57. CN1CCC(C(=O)NCCc2cccnc2)CC1=O (stereo not given)
58. COc1ccccc1/C=C/c1nn2c(CN3CCOCC3)nnc2s1
59. Cc1cc(CN(C)C(=O)NCC2CCOC2)no1 (stereo not given)
60. COc1ccc(NC(=O)C2CCN(C(=O)[C@@H](C)NC(=O)Nc3cc(C(F)(F)F)ccc3Cl)CC2)cc1

compound no.,55,56,57,58,59,60
NPYLR7 ag,-8.1,-1.6,0.6,2.4,-1.4,20.6
NPYLR7 ag max-min,-15.0,-10.1,-0.2,4.0,-4.3,16.0

61. COc1ccc(OC)c2c1CN(Cc1ncc(Cl)n1C)CC2O (stereo not given)
62. CCOC(=O)c1c(N)oc2c(-c3ccc(C)cc3)c3c(C(=O)OCC)c(N)oc3cc12
63. CC(=O)N[C@@H]1c2ccccc2C2(CCN(C(=O)/C=C/c3ccccc3F)CC2)[C@H]1OCc1ccccc1
64. O=S(=O)(O)C/C(=C\c1ccc(Cl)cc1)c1cc[n+](CCO)cc1
65. Cc1nn(C)c(Cl)c1CN1CCN(c2nnc(C(F)(F)F)s2)CC1
66. Cc1ccnc(NCCNC(=O)C2CCCN(C(=O)N(C)C)C2)c1 (stereo not given)

compound no.,61,62,63,64,65,66
NPYLR7 ag,6.5,-0.6,-0.8,-11.8,-1.2,12.5
NPYLR7 ag max-min,5.7,-2.8,-4.7,-18.5,-4.6,8.4

67. CC(C)C(C(=O)NC1CC(C)(C)OC1=O)c1ccccc1 (stereo not given)
68. CN(C)C(=O)N1CCC(c2nc(-c3ccccn3)no2)CC1
69. CC1C(=O)N(C)C(=O)c2nc[nH]c21 (stereo not given)
70. CC(=O)NCC1CCC2(CCN(c3nccc(CCC(F)(F)F)n3)CC2)O1 (stereo not given)
71. O=C(c1ccc(C2CCCN2)s1)N1CCC2(CCCO2)CC1 (stereo not given)
72. CCO[C@H]1COC[C@@H]1NC(=O)c1c(-c2ccccc2)noc1C

compound no.,67,68,69,70,71,72
NPYLR7 ag,-5.2,8.4,-0.1,3.1,-2.3,1.1
NPYLR7 ag max-min,758.9,3.1,-16.4,1.7,-1.7,1.2

73. CCOC(=O)c1cnn(-c2cc(C)nc3c(-c4ccc(Cl)cc4)c(C)nn23)c1N
74. CNC(=O)C(C)Sc1nnnn1-c1ccc(C)cc1 (stereo not given)
75. Cc1ccccc1CN(Cc1nc(C(=O)NC(C)c2ccccc2)co1)CC1CC1 (stereo not given)
76. COc1cccc(NC(=O)C(C2CCCC2)N2CCN(C(=O)C3CCC3)CC2)c1 (stereo not given)
77. FC(F)n1ccc2ccccc21
78. CCOC(=O)C1=C(O)/C(=C\c2cc(O)cc(O)c2)SC1=Nc1cccc(C(F)(F)F)c1

compound no.,73,74,75,76,77,78
NPYLR7 ag,-4.6,6.2,1.9,-9.1,34.2,0.6
NPYLR7 ag max-min,-4.0,0.4,-2.7,7.4,20.9,-0.7

Shown with values under each structure: entries from further up.
The line under a structure holds: NPYLR7 ag | NPYLR7 ag max-min
48: NCCc1nncn1-c1cccc2ccccc12
    13.4 | 13.1
49: CC(=O)c1ccc(N2CCN(C(=O)c3ccccc3N(C)C(=O)C3CC3)CC2)cc1
    0.5 | -1.8
50: COc1ccc(CN2CCN(Cc3ccc(C#CCCO)cc3)CC2CCO)c(F)c1 (stereo not given)
    -6.2 | -6.2
51: COC(=O)c1cc(CN2CCN(C(=O)c3cccc(OC)c3)CC2)cs1
    2.1 | -0.2

(next part)
79. CCc1nc2ccc(C(=O)Nc3ccc(OC)c(OC)c3)cn2c1N(CC)CC(=O)N(C)C
80. Cc1ccc(-c2nc(C(N)=O)c3[nH]c(=O)n(-c4ccc(C)c(C)c4)c3n2)o1
81. CCCS(=O)(=O)N1CCCCC1C(=O)NCC(=O)NCc1ccccc1 (stereo not given)
82. CC(C)n1cc(C(=O)N2CCc3c(nc[nH]c3=O)C2)cn1
83. COCCCNC(=O)c1cc(-c2ccccc2)nc2c1c(C)nn2C1CCS(=O)(=O)C1 (stereo not given)
84. O=C(O)c1ccn2c(C(=O)c3ccccc3)c(-c3ccccc3)cc2c1

compound no.,79,80,81,82,83,84
NPYLR7 ag,10.0,-11.0,-0.4,8.1,1.4,2.5
NPYLR7 ag max-min,20.8,-13.0,-0.7,5.8,6.3,-0.2

85. O=[N+]([O-])c1cc(S(=O)(=O)N2CCOCC2)ccc1NN=C1C2CC3CC(C2)CC1C3
86. CCCCOc1ccc(C(=O)N2CCN(C(=O)CCN3CCc4sccc4C3c3cccc(F)c3)CC2C)cc1 (stereo not given)
87. CC1CN(C(=O)c2ccc(CNc3nccc(N4CCOCC4)n3)cc2)CC(C)O1 (stereo not given)
88. Cc1cccc(Cn2nc(-c3ccc4c(c3)OCO4)ccc2=O)c1
89. O=C(NC1CC(=O)N(C2CCCCCC2)C1)c1cccs1 (stereo not given)
90. O=C(COc1ccccc1[N+](=O)[O-])NCc1ccc2c(c1)OCO2
91. COC1CCN(S(=O)(=O)N2CC(c3ccccn3)C2)CC1
92. Cn1c(SCC(=O)C2CCCCC2)nc2sc3c(c2c1=O)CCC3

compound no.,85,86,87,88,89,90,91,92
NPYLR7 ag,2.4,13.0,7.1,10.3,18.1,0.3,-1.0,2.5
NPYLR7 ag max-min,2.9,0.2,6.3,6.1,5.5,-2.3,1.7,0.1

Structural class, those above containing an NH in an aromatic ring.
2. O=C(c1ncn[nH]1)N1CCN(Cc2cn[nH]c2-c2ccc(-c3ccccc3)cc2)CC1
22. CCN1CCN(c2nc3c(c(=O)[nH]c(=O)n3C)n2Cc2ccc(F)cc2)CC1
26. CC(NC(=O)c1ccc(=O)[nH]c1)c1ccco1 (stereo not given)
30. NC(=O)[C@@H]1CCCN1Cc1cn[nH]c1-c1ccc(F)cc1
44. NC(=O)c1nc(-c2cccc(O)c2)nc2c1[nH]c(=O)n2-c1ccc(F)cc1
46. Cn1cnnc1Sc1ccc(CN2CCc3[nH]c4ccc(F)cc4c3C2)o1
69. CC1C(=O)N(C)C(=O)c2nc[nH]c21 (stereo not given)
80. Cc1ccc(-c2nc(C(N)=O)c3[nH]c(=O)n(-c4ccc(C)c(C)c4)c3n2)o1

compound no.,2,22,26,30,44,46,69,80
NPYLR7 ag,5.4,-5.0,-1.7,12.9,3.3,32.7,-0.1,-11.0
NPYLR7 ag max-min,2.6,-6.6,-4.3,9.5,1.3,21.5,-16.4,-13.0

82. CC(C)n1cc(C(=O)N2CCc3c(nc[nH]c3=O)C2)cn1

compound no.,82
NPYLR7 ag,8.1
NPYLR7 ag max-min,5.8

Screening results deposited in PubChem BioAssay by Fisher Drug Discovery Resource Center.
